From PubChem BioAssay
DUX4 txn inh: inhibitors of DUX4-driven ZSCAN4 reporter expression, primary screen, 293T cells, Gaussia and Italica luciferase; 293T-iDUX4 ZSCAN4-Gaussia luciferase reporter, 24 h; hits give low values; activity change, negative = inhibition, % (test concentration not listed); 37,000 tested, 0.8% active;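 active means -10% or lower and over 25 points stronger than a control reporter; inconclusive means -10% or lower with a smaller gap; inactive means above -10%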;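 further: 0% = median of neutral control wells and -100% = median of positive control wells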
DUX4 txn inh difference: recorded beside DUX4 txn inh, whose call it bears; Gaussia minus Italica difference, %; measured here: selective DUX4 reporter inhibition;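 worked out from the two reporters; negative = selective loss of the DUX4 reporter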
DUX4 txn inh control: recorded beside DUX4 txn inh, whose call it bears; activity change, negative = inhibition, %; measured here: Italica tet-on control reporter;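 0 = neutral control and -100 = positive control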
An asterisk follows results filed as active; ? = inconclusive; . = no result given.

SMILES	DUX4 txn inh	DUX4 txn inh difference	DUX4 txn inh control
O=C(CN1CCOCC1)N[C@@H]1CC[C@@H](CCNS(=O)(=O)c2ccccc2F)O[C@H]1CO	0	-4	4.4
COc1ccccc1CN1CC[C@@H]2[C@H]1c1cc(-c3cccc(C(=O)N(C)C)c3)ccc1N[C@@H]2CO	?	.	.
C[C@H]1CN([C@@H](C)CO)C(=O)CCCn2cc(nn2)CO[C@@H]1CN(C)C(=O)c1cc(-c2ccccc2)on1	4	-6	9.8
OC[C@H]1[C@@H](c2ccccc2)C2(CN(Cc3ccccn3)C2)N1Cc1cncnc1	6	-2	7.5
N#C[C@@H]1[C@H](c2ccccc2-c2ccccc2)[C@@H](CO)N1C(=O)Cc1ccccc1	-6	-5	-1.4
C[C@@H]1CCCCO[C@@H](CN(C)C(=O)C2CCCCC2)[C@@H](C)CN([C@@H](C)CO)C(=O)c2cc(NC(=O)c3ccncc3)ccc2O1	2	5	-3.0
C[C@@H]1CN([C@H](C)CO)C(=O)c2cc(NC(=O)Cc3ccccc3)ccc2O[C@H]1CN(C)S(C)(=O)=O	-1	1	-1.9
COc1cccc(NC(=O)N(C)C[C@H]2OCc3cnnn3CCCC(=O)N([C@H](C)CO)C[C@@H]2C)c1	0	-1	0.6
O=C(Cc1ccncc1)NCC[C@@H]1CC[C@@H](NS(=O)(=O)c2ccccc2Cl)[C@H](CO)O1	2	-3	4.4
COc1ccccc1-c1ccc([C@@H]2[C@@H](CO)N(C(C)=O)C23CN(C(C)=O)C3)cc1	13	12	1.2
O=C(CN1CCOCC1)NCC[C@@H]1CC[C@@H](NC(=O)c2ccc3c(c2)OCO3)[C@H](CO)O1	8	4	4.2
C[C@@H]1CN([C@@H](C)CO)C(=O)c2ccccc2-c2ccccc2CO[C@H]1CN(C)C(=O)Nc1ccc(F)cc1	22	19	3.1
COc1ccc(C#Cc2ccc([C@@H]3[C@H](CO)N4CCCCN(S(=O)(=O)c5cn(C)cn5)C[C@@H]34)cc2)cc1	?	.	.
O=C(C[C@@H]1CC[C@@H]2[C@H](COC[C@H](O)CN2S(=O)(=O)c2cccc(F)c2)O1)Nc1ccccc1	19	10	8.6
CCS(=O)(=O)Nc1ccc2c(c1)C(=O)N(C)[C@@H]1CC[C@@H](CC(=O)NCCCN3CCOCC3)O[C@@H]1CO2	4	1	3.3
O=C(Nc1ccc2c(c1)[C@H]1C[C@@H](CC(=O)N3CCc4ccccc4C3)O[C@@H](CO)[C@H]1O2)NC1CCCC1	-3	2	-4.8
CC(=O)Nc1ccc2c(c1)C(=O)N(C)[C@H]1CC[C@H](CC(=O)NCc3ccc4c(c3)OCO4)O[C@H]1CO2	-3	-7	4.7
CN(C)CC#Cc1ccc([C@@H]2[C@H](CO)N3CCCCN(C(=O)Nc4cc(F)ccc4F)C[C@@H]23)cc1	20	19	1.5
CC(C)NC(=O)N[C@H]1CC[C@H](CC(=O)NCCCN(C)C)O[C@@H]1CO	-3	-8	4.7
O=C1NC(Cc2cccc(Cl)c2)COCc2cnnn2CCC1c1ccccc1 (configuration not stated)	0	0	0.4
COCC(=O)N(C[C@H]1N[C@H](CO)[C@@H]1c1ccc(-c2cccnc2)cc1)C(C)C	3	-1	4.0
CCc1cnc(N2[C@@H](C#N)[C@H](c3ccc(C4=CCCC4)cc3)[C@@H]2CO)s1	-3	-5	1.9
COc1ccc(S(=O)(=O)N(C)C[C@@H]2OCc3ccccc3-c3c(n(C)c4ccccc34)C(=O)N([C@@H](C)CO)C[C@@H]2C)cc1	?	.	.
COc1ccccc1-c1ccc([C@@H]2[C@@H](CO)N(C(=O)C3CC3)C23CN(C(C)=O)C3)cc1	-4	-9	5.6
Cc1ccccc1NC(=O)Nc1ccc2c(c1)C(=O)N(C)[C@@H]1CC[C@H](CC(=O)NCC3CC3)O[C@H]1CO2	1	0	1.6

One compound at a time, as listed above. Order of screens: DUX4 txn inh	DUX4 txn inh difference	DUX4 txn inh control
COc1ccc(S(=O)(=O)N(C)C[C@@H]2OCc3ccccc3-c3c(n(C)c4ccccc34)C(=O)N([C@@H](C)CO)C[C@@H]2C)cc1 across the screens: ?	.	.
Cc1ccccc1NC(=O)Nc1ccc2c(c1)C(=O)N(C)[C@@H]1CC[C@H](CC(=O)NCC3CC3)O[C@H]1CO2 across the screens: 1	0	1.6

(continued)
SMILES	DUX4 txn inh	DUX4 txn inh difference	DUX4 txn inh control
C[C@H](CO)N1C[C@H](C)[C@H](CN(C)C(=O)Nc2ccc(F)cc2)Oc2c(NC(=O)C3CCCCC3)cccc2C1=O	0	4	-3.8
CCCNC(=O)N1C[C@@H](O)COC[C@H]2O[C@H](CC(=O)NCc3ccc(Cl)c(Cl)c3)CC[C@@H]21	7	8	-1.2
O=C(NCC[C@H]1CC[C@@H](NS(=O)(=O)Cc2ccccc2)[C@H](CO)O1)C1CCCCC1	4	5	-1.3
O=S(=O)(c1ccccc1F)N1[C@@H]2CNC[C@H]1C2c1ccc(/C=C/c2ccccc2)cc1 (some centres not stated)	?	-4	8.1
COc1ccc(-c2cnc3c(c2)C(=O)N([C@H](C)CO)C[C@@H](C)[C@H](CN(C)Cc2ccc(C(=O)O)cc2)O3)cc1	-3	-5	2.1
C/C=C/c1ccccc1[C@H]1[C@@H](C#N)N(S(=O)(=O)c2cccc(F)c2)[C@H]1CO	?	.	.
C[C@H]1CN([C@@H](C)CO)C(=O)Cc2cc(NC(=O)C3CCCCC3)ccc2O[C@@H]1CN(C)Cc1ccc(C(=O)Nc2ccccc2N)cc1	-1	5	-6.3
COc1ccc2c3c([nH]c2c1)[C@@H](CO)N(C(=O)Nc1ccc(F)cc1)CC31CN(S(=O)(=O)c2ccc(C)cc2)C1	?	.	.
Cc1ccccc1S(=O)(=O)N1CC[C@H]2[C@H](CO)Nc3ccc(-c4ccccc4)cc3[C@H]21	-2	10	-12
COc1ccc2c3c(n(C)c2c1)[C@@H](CO)N(Cc1ccc(Cl)cc1)CC31CN(C(=O)NC(C)C)C1	-4	-2	-1.7
CO[C@H]1CN(C)C(=O)c2cc(NC(C)=O)ccc2OC[C@H](C)NC[C@@H]1C	-1	-2	1.2
COc1ccc(C#Cc2cnc3c(c2)C(=O)N([C@H](C)CO)C[C@H](C)[C@H](CN(C)Cc2cccc(C)c2)O3)cc1OC	1	-3	3.8
CCS(=O)(=O)N1CC2(C1)[C@H](c1ccccc1)[C@H](CO)N2Cc1ccccn1	-3	-9	5.8
CN(C[C@H]1[C@H](c2ccccc2)[C@@H](CO)N1Cc1ccccn1)S(C)(=O)=O	-1	-1	0.0
N#C[C@@H]1[C@H](c2ccc(C3=CCCC3)cc2)[C@H](CO)N1C(=O)Nc1ccccc1F	-1	6	-6.6
CC(C)COC(=O)N(C)C[C@@H]1OCc2ccccc2-c2ccccc2C(=O)N([C@@H](C)CO)C[C@H]1C	-4	-6	2.0
COc1ccccc1CNC(=O)C[C@H]1CC[C@@H]2[C@H](COC[C@@H](O)CN2C(=O)Nc2ccc(C(F)(F)F)cc2)O1	-2	7	-8.8
C[C@@H](NC(=O)C[C@H]1CC[C@@H]2[C@@H](COc3ccc(NC(=O)C4CCOCC4)cc3C(=O)N2C)O1)c1ccccc1	-1	-1	-0.7
COc1ccc(-c2ccc([C@@H]3[C@H](C#N)N[C@H]3CO)cc2)cc1	3	-1	4.3
C[C@H]1CN([C@@H](C)CO)C(=O)Cc2cc(NC(=O)c3ccncc3)ccc2O[C@@H]1CN(C)C(=O)Nc1ccc(F)cc1	1	4	-3.2
CN1c2ccc(Br)cc2[C@H]2[C@H](CCN2C(=O)CN2CCOCC2)[C@H]1CO	8	8	0.5
CN1c2ccc(-c3ccccc3)cc2[C@@H]2[C@@H](CCN2C(=O)c2ccc3c(c2)OCO3)[C@H]1CO	?	.	.
O=C(C[C@@H]1C[C@H]2c3cc(NC(=O)NC4CCCCC4)ccc3O[C@H]2[C@H](CO)O1)NCc1cccnc1	4	2	1.4
O=C(NCCCN1CCOCC1)[C@H]1[C@H](CO)[C@H]2Cn3c(ccc(C4=CCCCC4)c3=O)[C@@H]1N2	3	2	1.7
N#Cc1cccc(-c2ccc3c(c2)[C@@H]2[C@@H](CCN2C(=O)CN2CCOCC2)[C@@H](CO)N3)c1	?	.	.

Ordered by count of non-hydrogen atoms (ascending): 11 of the compounds above.
SMILES	DUX4 txn inh	DUX4 txn inh difference	DUX4 txn inh control
COc1ccc(-c2ccc([C@@H]3[C@H](C#N)N[C@H]3CO)cc2)cc1	3	-1	4.3
CN1c2ccc(Br)cc2[C@H]2[C@H](CCN2C(=O)CN2CCOCC2)[C@H]1CO	8	8	0.5
CCS(=O)(=O)N1CC2(C1)[C@H](c1ccccc1)[C@H](CO)N2Cc1ccccn1	-3	-9	5.8
O=C(NCC[C@H]1CC[C@@H](NS(=O)(=O)Cc2ccccc2)[C@H](CO)O1)C1CCCCC1	4	5	-1.3
Cc1ccccc1S(=O)(=O)N1CC[C@H]2[C@H](CO)Nc3ccc(-c4ccccc4)cc3[C@H]21	-2	10	-12
CCCNC(=O)N1C[C@@H](O)COC[C@H]2O[C@H](CC(=O)NCc3ccc(Cl)c(Cl)c3)CC[C@@H]21	7	8	-1.2
O=C(NCCCN1CCOCC1)[C@H]1[C@H](CO)[C@H]2Cn3c(ccc(C4=CCCCC4)c3=O)[C@@H]1N2	3	2	1.7
CC(C)COC(=O)N(C)C[C@@H]1OCc2ccccc2-c2ccccc2C(=O)N([C@@H](C)CO)C[C@H]1C	-4	-6	2.0
COc1ccccc1CNC(=O)C[C@H]1CC[C@@H]2[C@H](COC[C@@H](O)CN2C(=O)Nc2ccc(C(F)(F)F)cc2)O1	-2	7	-8.8
COc1ccc2c3c([nH]c2c1)[C@@H](CO)N(C(=O)Nc1ccc(F)cc1)CC31CN(S(=O)(=O)c2ccc(C)cc2)C1	?	.	.
C[C@H]1CN([C@@H](C)CO)C(=O)Cc2cc(NC(=O)c3ccncc3)ccc2O[C@@H]1CN(C)C(=O)Nc1ccc(F)cc1	1	4	-3.2

(further entries)
SMILES	DUX4 txn inh	DUX4 txn inh difference	DUX4 txn inh control
CN1c2ccc(C#Cc3cccnc3)cc2[C@H]2[C@H](CCN2S(=O)(=O)c2cccc(F)c2)[C@H]1CO	?	.	.
COCC#Cc1ccc([C@@H]2[C@H](C#N)N(C(=O)c3cccnc3)[C@H]2CO)cc1	-4	-2	-2.4
CCC(=O)N1[C@H](CO)[C@H](c2ccccc2)[C@@H]1CN(C(C)C)S(C)(=O)=O	-2	-2	-0.4
Cc1ccc(S(=O)(=O)N(C)C[C@H]2OCCCC[C@@H](C)Oc3ccc(NC(=O)c4ccncc4)cc3C(=O)N([C@H](C)CO)C[C@@H]2C)cc1	-1	-1	-0.9
Cc1noc(C)c1S(=O)(=O)N(C)C[C@@H]1Oc2c(NS(=O)(=O)c3cn(C)cn3)cccc2C(=O)N([C@@H](C)CO)C[C@H]1C	2	1	1.3
CO[C@@H](CN(C)Cc1nccs1)[C@H](C)CN([C@@H](C)CO)S(=O)(=O)c1ccc(C)cc1	0	0	0.1
O=S(=O)(c1cccs1)N1CCCCN2[C@H](C1)[C@H](c1ccc(-c3ccccc3)cc1)[C@@H]2CO	?	.	.
COc1ccccc1C#Cc1ccc([C@H]2[C@H]3CN(S(C)(=O)=O)CCCCN3[C@H]2CO)cc1	23	36	-13
O=C(CCN1CCCCC1)N[C@H]1CC[C@@H](CCn2cc(-c3cccc(F)c3)nn2)O[C@H]1CO	5	8	-2.8
CO[C@@H]1CN(C)C(=O)c2ccc(NC(=O)c3nc4ccccc4s3)cc2OC[C@@H](C)N(Cc2cccnc2)C[C@H]1C	-65*	-43*	-22*
CC(C)C#Cc1ccc([C@H]2[C@@H](CO)N3C(=O)CN(C(=O)Cc4cccnc4)C[C@@H]23)cc1	10	0	9.8
CN(C)CC(=O)N1[C@H](C#N)[C@H](c2ccccc2-c2ccc(C(=O)N(C)C)cc2)[C@@H]1CO	16	7	8.4
CCC(=O)N1[C@H](CO)[C@H]2c3ccccc3N(C(=O)Nc3ccc(Cl)cc3)C[C@H]21	0	-3	2.9
C/C=C/c1ccc([C@H]2[C@H](CO)N(C(C)=O)[C@H]2CN(C)S(C)(=O)=O)cc1	-1	-3	2.1
CCN1[C@H](C(=O)NCCc2cn(C)cn2)[C@@H](CO)[C@@H]2Cn3c(ccc(-c4ccc(F)cc4)c3=O)[C@@H]21	2	0	1.7
CCCNC(=O)N[C@H]1C=C[C@@H](CC(=O)NCCc2ccccc2)O[C@@H]1CO	4	-2	5.2
O=C(c1ccccn1)N1CC2(C1)[C@@H](c1ccccc1)[C@@H](CO)N2Cc1ccc(Cl)cc1	-6	1	-7.2
CO[C@H]1CN(C)C(=O)c2ccc(NC(C)=O)cc2OC[C@H](C)N(C(=O)c2ccccc2)C[C@H]1C	-3	-3	0.1
CCCNC(=O)N1C[C@H]2[C@@H](c3ccccc31)[C@@H](CO)N2Cc1ccc2c(c1)OCO2	3	0	2.7
COc1ccc(NC(=O)N2CC(=O)N3[C@H](CO)[C@H](c4ccc(C5=CCCC5)cc4)[C@H]3C2)cc1	14	15	-1.8
COc1cccc(NC(=O)N2CC(=O)N3[C@H](CO)[C@H](c4ccc(C5=CCCCC5)cc4)[C@@H]3C2)c1	-8	5	-14
CC(C)NC(=O)N[C@H]1C=C[C@@H](CC(=O)NCCCN(C)C)O[C@H]1CO	5	3	1.8
O=C(Nc1ccc2c(c1)[C@@H]1C[C@@H](CC(=O)N3CCCCC3)O[C@@H](CO)[C@@H]1O2)C1CCOCC1	-1	-7	6.1
CS(=O)(=O)Nc1ccc2c(c1)[C@H]1C[C@H](CC(=O)NC3CCCC3)O[C@@H](CO)[C@H]1O2	9	5	4.0
COc1ccc(-c2ccc3n(c2=O)C[C@@H]2[C@@H](CO)[C@H](C(=O)Nc4ccccc4)[C@H]3N2C)cc1	0	0	-0.3
CCCNC(=O)N1C[C@@H]2[C@H](c3ccccc31)[C@H](CO)N2CC1CCCC1	2	0	1.6

A portion of the library; the hit share may differ from the screen's.
